TRPV1 PAM – human TRPV1 potentiation | Q8NER1 | TRPV1-expressing cells, Fluo-8 calcium influx, capsaicin EC20 potentiation; host cell line not named in the record; control for the full effect not named in the record | potentiation, % at 8.33 µM | 0.02% of 320,000 active; active means potentiation above 80%; inconclusive means 30% to 80%; inactive means below 30%; note: 0% is about no effect
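TRPV1-expressing cells were cultured overnight at 35.5C and loaded with Fluo-8 calcium dye for 40 to 90 min at room temperature. After a 10 s baseline, compound was added and calcium influx was read kinetically for 3 min (ex 480/em 520 nm).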
D2 agonist – agonists of human D2 dopamine receptor (beta-arrestin); P14416; DiscoveRx PathHunter D2 beta-arrestin, luminescence, 90 min; 100% = 57 uM dopamine signal; activation, % (test concentration not listed); 0.084% of 360,000 active; in the data active = activation above about 40%; inconclusive = about 15% to 40%; inactive = below about 15%; note: compound concentration not given in the record; the text of the record calls up to 30% inactive
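Agonist mode: compounds alone added to overnight-plated D2 PathHunter cells for 90 min at 37 C, with 57 uM final dopamine (EC100) defining full response. Beta-arrestin recruitment detected by chemiluminescent reagent, read after 1 h at ambient temperature.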
Six1-Eya2 blk – blocks human Six1 binding to Eya2 | Q15475+O00167 | AlphaScreen GST-Six1/His-Eya2 binding, biochemical; stronger effect = lower value; control for the full effect not named in the record | activity change, % (concentration not given with the values) | 0.56% of 360,000 active; in the data active = activity change below about -65%; inconclusive = about -30% to -65%; inactive = above about -30%; note: % is set by controls: 0 for no effect and ±100 for the full control effect
Target sequence (O00167 whole entry, looked up): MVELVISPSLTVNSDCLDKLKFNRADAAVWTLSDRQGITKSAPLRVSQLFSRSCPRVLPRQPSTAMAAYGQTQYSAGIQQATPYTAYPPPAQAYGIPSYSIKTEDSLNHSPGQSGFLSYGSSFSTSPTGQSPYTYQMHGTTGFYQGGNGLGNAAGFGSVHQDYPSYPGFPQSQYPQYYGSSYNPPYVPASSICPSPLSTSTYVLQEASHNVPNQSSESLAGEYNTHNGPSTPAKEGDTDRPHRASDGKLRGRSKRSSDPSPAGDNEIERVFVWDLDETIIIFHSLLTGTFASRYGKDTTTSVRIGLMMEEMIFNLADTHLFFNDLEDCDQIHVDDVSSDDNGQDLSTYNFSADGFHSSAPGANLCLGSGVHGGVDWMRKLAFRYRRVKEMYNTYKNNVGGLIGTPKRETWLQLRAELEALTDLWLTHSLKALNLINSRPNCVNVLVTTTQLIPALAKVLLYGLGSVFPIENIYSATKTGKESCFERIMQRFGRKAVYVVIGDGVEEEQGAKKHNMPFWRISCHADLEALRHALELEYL
Target sequence (Q15475 whole entry, looked up): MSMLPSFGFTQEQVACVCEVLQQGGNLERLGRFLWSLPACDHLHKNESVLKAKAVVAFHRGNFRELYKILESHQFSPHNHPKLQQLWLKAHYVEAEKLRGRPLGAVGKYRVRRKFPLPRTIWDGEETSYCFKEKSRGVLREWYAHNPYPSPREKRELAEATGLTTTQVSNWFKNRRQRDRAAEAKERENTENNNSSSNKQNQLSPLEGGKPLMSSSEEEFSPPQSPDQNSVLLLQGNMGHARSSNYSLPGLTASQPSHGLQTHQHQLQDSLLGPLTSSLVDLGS
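AlphaScreen with GST-Six1 and His-Eya2 (5X mix: 250 nM and 500 nM), glutathione donor and nickel acceptor beads; buffer 50 mM Tris pH 8.0, 300 mM NaCl, 1 mM TCEP; 1 h at 37 C in the dark.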
D2 PAM – human D2 receptor positive allosteric modulation | P14416 | DiscoveRx D2 beta-arrestin cells, luminescence, 90 min; 100% = 57 uM dopamine signal | potentiation, % (concentration not given with the values) | 0.23% of 360,000 active; active = potentiation of 50% or more; inconclusive = 30% to 50%; inactive = 30% or less;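 note: compound concentration not given in the record; tested on top of an EC20 dose of dopamine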
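PathHunter D2 cells, attached overnight at 37 deg C, received compound in DMSO plus dopamine at EC20 (50 nM final) for 90 min at 37 deg C. Beta-arrestin recruitment was read as luminescence after 1 h with detection reagent at ambient temperature.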
CtBP-E1A blk – inhibitors of CtBP/E1A interaction; AlphaScreen GST-E1A/His-CtBP binding, 1536-well; stronger effect = lower value; control for the full effect not named in the record; activity change, % (test concentration not listed); 0.49% of 340,000 active; AID 651724; in the data active means activity change below about -65%; inconclusive means about -30% to -65%; inactive means above about -30%; note: % is set by controls: 0 for no effect and ±100 for the full control effect; compound concentration not given in the record
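GST-E1A and His-tagged CtBP (125 nM each as 5X stock) were preincubated with pin-transferred compound for 2 h at 37 °C in the dark, then glutathione donor and nickel acceptor beads were added for 1 h before AlphaScreen reading.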
Sfp PPTase inh – blocks B. subtilis Sfp PPTase activity; 3.5% of 310,000 active; Biochemical Sfp PPTase activity, qHTS; Q9F4F7; Potency, µM, without a hit: max response, negative = inhibition, usual class: inhibitors; active = well fitted inhibition curve with a large enough effect; inconclusive = small, poorly fitted or top-dose-only effect, or another doubt; inactive = no such curve, though single readings can be large or run the other way;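 note: the enzyme is Sfp with the accession as filed and its product quenches rhodamine fluorescence; potency is the fitted concentration of half-maximal effect; 0% = enzyme reaction without inhibitor and -100% = no enzyme wells; top concentration of the series not given in the record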
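Reaction rates are the 30-min fluorescence difference (ex 525, em 598 nm) in wells containing 15 nM Sfp, 5 uM rhodamine-CoA and 12.5 uM BHQ-2-YbbR at pH 7.6 with 10 mM MgCl2.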
PINK1 expr mod – modulators of PINK1 expression; PINK1 immunofluorescence, high-content cytometry, 24 h; Potency, µM (top dose mostly 76.6 µM), without a hit: top-dose activation (PINK1 increase), hits mostly activators; 0.2% of 410,000 active; AID 624263; active = well fitted activation curve with a large enough effect; inconclusive = small, poorly fitted or top-dose-only effect; inactive = flat fitted curve, though single readings scatter; cell line not stated here;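 note: potency is the fitted concentration of half-maximal effect; % of control where 0% means no effect; nearly all actives have a fitted effect of over 65% in size; a mitochondrial uncoupler was the plate control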
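Stable cell line treated 24 h with compounds at 5 concentrations (CCCP controls), then fixed and immunostained for PINK1 plus nuclear and cell stains; PINK1 immunofluorescence quantified by laser-scanning microplate cytometry.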
* hit, by the source's call; u = inconclusive; x = no result given; & = joins results of further samples; [ ] = another dose, or the depositor's remark. Random draw from the library; any-hit rate near 3.7%.

Start of the listing, in advance (two entries):
SMILES	TRPV1 PAM	D2 agonist	Six1-Eya2 blk	D2 PAM	CtBP-E1A blk	Sfp PPTase inh	PINK1 expr mod
CNC(C)C#Cc1ccc2sc3cccc(OC)c3c(=O)c2c1 (centres undefined)	-13	-1.1	-6	-8	-20	-3%	2.3%
CC(Oc1ccc(Br)cc1)C(=O)Nc1cc(Cl)ccc1N1CCN(C)CC1 (centres undefined)	-7	-6.7	-19	-27	-8	x	-5.1%

The whole of this part, from the start:
SMILES	TRPV1 PAM	D2 agonist	Six1-Eya2 blk	D2 PAM	CtBP-E1A blk	Sfp PPTase inh	PINK1 expr mod
CNC(C)C#Cc1ccc2sc3cccc(OC)c3c(=O)c2c1 (centres undefined)	-13	-1.1	-6	-8	-20	-3%	2.3%
CC(Oc1ccc(Br)cc1)C(=O)Nc1cc(Cl)ccc1N1CCN(C)CC1 (centres undefined)	-7	-6.7	-19	-27	-8	x	-5.1%
COCCCN(C)C1CCN(C(=O)Nc2ccc(F)cc2)CC1	-16	-4.6	-2	8	-2	8%	1.4%
O=C(NCCCn1ccnc1)/C(=C\c1ccccc1Cl)NC(=O)c1ccccc1	4	-1.9	7	5	-3	2%	0.6%
O=C(Nc1cc([N+](=O)[O-])ccc1F)c1ccc2c(c1)OCCO2	-15	-2.3	-1	1	2	-1%	25%
Cc1c(CCC(=O)O)c(=O)oc2c(C)c(OCc3ccccc3Cl)ccc12	4	2.7	-19	19	-6	10%	-2.2%
Cc1cc(NC(=O)CCCn2nc([N+](=O)[O-])c(Br)c2C)no1	24	-1.5	3	-7	x	2%	0.4%
Cc1ccc(C)c(NC(=O)CN(C)C(=O)c2cccc(-n3cccc3)c2)c1	12	0.8	-25	-16	-2	x	0.7%
COc1cccc(C(c2nnnn2Cc2ccco2)N2CCN(c3cccc(C)c3C)CC2)c1OC (centres undefined)	21	-5.8	-23	-17	-10	4%	0.3%
CC(NC(=O)c1ccnc(C(C)(C)C)c1)c1ccccc1 (centres undefined)	9	0.3	5	-15	5	8%	-32%[inhibitor][38.3 µM]
Clc1ccc(CN2CCc3c([nH]c4ccccc34)C2)cc1Cl	-1	-7.3	-6	-29	x	u	-0.7%
COc1ccc(/C=C2\SC(=S)N(CCC(=O)N(CCO)c3ccccc3)C2=O)cc1OC	-5	11	8	-11	-11	-9%	-0.7%

4 entries from above, ordered by length of the SMILES, low to high.
SMILES	TRPV1 PAM	D2 agonist	Six1-Eya2 blk	D2 PAM	CtBP-E1A blk	Sfp PPTase inh	PINK1 expr mod
Clc1ccc(CN2CCc3c([nH]c4ccccc34)C2)cc1Cl	-1	-7.3	-6	-29	x	u	-0.7%
Cc1cc(NC(=O)CCCn2nc([N+](=O)[O-])c(Br)c2C)no1	24	-1.5	3	-7	x	2%	0.4%
Cc1ccc(C)c(NC(=O)CN(C)C(=O)c2cccc(-n3cccc3)c2)c1	12	0.8	-25	-16	-2	x	0.7%
COc1ccc(/C=C2\SC(=S)N(CCC(=O)N(CCO)c3ccccc3)C2=O)cc1OC	-5	11	8	-11	-11	-9%	-0.7%

Remaining list, next part:
SMILES	TRPV1 PAM	D2 agonist	Six1-Eya2 blk	D2 PAM	CtBP-E1A blk	Sfp PPTase inh	PINK1 expr mod
CCCn1nc(C(=O)NNC(=O)CCOc2ccccc2OCC)c2ccccc2c1=O	3	3.9	3	-5	4	x	3.4%
CCOc1cc(CNc2ccc(O)cc2)cc(Br)c1OCc1ccccc1F	-1	u	-1	30	u	18µM*	3.0%
O=C(c1ccccc1)N(C(=O)c1ccccc1)c1ccccc1	x	-9.4	8	-5	4	x	-0.1%
COc1ccc(CN(C(=O)c2ccc(-c3ccccc3)[nH]2)C(C(=O)NC(C)(C)C)c2ccncc2)cc1 (centres undefined)	7	-1.5	-14	-11	-25	45µM*	-1.9%
Cc1ccc(N=CC2=C(O)CC(c3ccco3)CC2=O)cc1 (centres undefined)	-10	-0.4	-1	-4	11	-16%	4.4%
Cc1cccc(NC(=S)NC(=O)c2ccc(Br)o2)c1C	6	-6.8	1	-6	x	7%	6.6%
O=C(CCNS(=O)(=O)c1ccc(Cl)cc1)N1CCC2(O)CCCCC2C1 (centres undefined)	-11	0.5	13	-17	5	0%	-0.8%
CCOC(=O)c1cnc(SCC#N)nc1N	-2	0.7	3	-9	5	15%	0.6%
CC(=O)NC(=O)c1nnn(Cc2ccccc2)c1NC(C)=O	1	-2.2	20	-11	2	15%	-1.5%
CCCCn1c(=O)c(CCC(=O)O)nc2ccccc21	28	-1.9	15	10	-4	-5%	0.5%
C[C@@H]1CC[C@]2(C(=O)O)CC[C@]3(C)C(=CCC4[C@@]5(C)CC[C@H](O)[C@@](C)(C(=O)O)C5CC[C@]43C)C2[C@]1(C)O (some centres undefined)	x	-3.2	9	-2	-7	x	-0.3%
Nc1c(Cl)ncnc1N/N=C/c1ccc2ccccc2n1	3	-1.5	-80*	-4	-80*	-1%	1.8%
COc1ccc(OC)c(NC(=O)C2CCCN(S(=O)(=O)c3c(C)nn(C)c3C)C2)c1 (centres undefined)	x	-1.1	-11	-4	-2	x	1.5%&1.5%
O=C(Nc1cc(S(=O)(=O)N2CCOCC2)ccc1Cl)c1cc(=O)c2ccccc2o1	14	-3.0	-8	0	x	-2%	2.4%
CC(C)C(=O)Nc1nnc(NC(=S)Nc2ccccc2)s1	1	-6.7	0	-21	-4	-7%	1.1%
COc1ccc(NC2=NC(=S)N(c3cccc(C)c3)C23CCCCC3)cc1	3	-5.0	-1	-16	-3	19%	8.6%
O=C(Cn1ncc2c3ccccc3n(Cc3ccc(Cl)cc3)c2c1=O)NCCCN1CCCC1=O	-1	-0.8	0	-9	-5	-3%	1.6%
CCN(CC(=O)NCCCn1ccnc1)S(=O)(=O)c1ccc(C)cc1	-2	2.0	16	-2	-9	7%	0.7%
CCOC(=O)C1(C)CCCN1C(=O)c1ccccc1F (centres undefined)	x	2.6	0	0	7	x	0.5%
CC(C)NC(=O)c1ccccc1NC(=O)C1CC(=O)N(C(C)C)C1 (centres undefined)	11	0.5	2	-1	8	12%	-0.2%
Cc1ccc(-c2cc(C(=O)N/N=C/C(Br)=C/c3ccccc3)n[nH]2)o1	-1	-0.5	-20	-6	u	-56%	-3.7%
CCOCCOC(=O)c1ccc(-n2cncn2)nc1	-7	-0.8	6	-1	-2	12%	-2.2%
COC(=O)c1cccc(NC(=O)CSc2nncn2-c2ccccn2)c1	-5	1.0	1	-4	-7	13%	0.7%
O=C(CCCn1c(=S)[nH]c2ccccc2c1=O)NCc1ccco1	-24	-1.9	-9	4	-8	-10%	-0.5%
N#C/C(=C\c1ccc([N+](=O)[O-])o1)c1nc2ccccc2[nH]1	-2	u	-5	18	-6	7%	2.2%
C/C(=N\Nc1ccccn1)c1ccc(C(C)C)cc1	-13	-4.8	12	-6	0	-17%	2.1%
N/C(=N\OC(=O)Cc1ccccc1)c1ccc(Br)cc1	8	3.0	50	2	46	-2%	6.8%
CCCC(C)NC(=O)Cc1ccccc1[N+](=O)[O-] (centres undefined)	-4	-2.2	-3	-10	-2	2%	3.0%
COCC(=O)N(C)[C@H]1C[C@H]2c3cc(-c4ccccc4)ccc3CCN2C(=O)[C@H]1[C@H](C)O	x	-1.7	4	2	4	x	-1.1%
CCOc1cc(C2c3c(n[nH]c3C)C(=O)N2c2ccc(Br)cc2)ccc1O (centres undefined)	8	-2.9	1	-2	-2	-16%	-2.2%
CN1CCc2c(sc3c2C(=O)NC(c2cccs2)N3)C1 (centres undefined)	6	-1.1	-5	-31	7	0%	x
CC(OC(=O)c1ccc2c(=O)n3c(nc2c1)CCCCC3)C(=O)Nc1ccc(Cl)cn1 (centres undefined)	-1	4.8	7	1	2	5%	-0.5%
O=C1OC[C@@H]2CCCN2C(=O)[C@H](CC(=O)N(CCO)Cc2ccccc2)C/C=C\C[C@H]1Cc1ccc(F)cc1	x	0.7	-2	4	4	x	0.3%
Cn1ncc(C#N)c1/N=C/N1CCCCC1	-6	-2.3	6	3	4	10%	-0.7%
CC(=O)c1ccc(NC(=S)NC(=O)c2c(Cl)c(C)nn2C)cc1	3	-6.7	-2	-2	6	u	5.2%
Cc1ccc(NC(=O)CCS(=O)(=O)c2cc3c(cc2Cl)NC(=O)CO3)cc1	6	-0.7	3	-4	x	15%	0.4%
Cc1nc2sccn2c(=O)c1S(=O)(=O)N1CCN(c2ccccc2)CC1	-5	-2.2	4	1	5	17%	3.7%
Cn1c(C(=O)NCCCN2CCCCCC2)cc2c(=O)n(C)c3ccccc3c21	27	-1.4	-3	-10	-2	0%	2.2%
O=C(CNC(=O)c1ccco1)NCc1nc2ccccc2[nH]1	-1	-0.2	7	-2	2	18%	1.9%
COc1ccc(OCCNC(=O)CCCO)cc1	-8	-3.8	28	-15	x	17%	-0.1%
Cc1nc2sccn2c1P(c1c(C)nc2sccn12)c1c(C)nc2sccn12	-5	-0.3	0	-11	-3	5%	-5.0%[38.3 µM]
CC(=O)Nc1sc2c(c1C(c1ccc(F)cc1)N1CCOCC1)CCCC2 (centres undefined)	-15	-5.5	-18	-5	-13	-27%	4.1%
COC(=O)c1ccc2nc(-c3cccc(Br)c3)c(Cc3ccccc3OC)n2c1	x	x	-3	x	-2	x	2.7%
Cc1ccc2c(c1)nnn2C1CCN(S(=O)(=O)c2ccc(C(=O)N3C(C)CCCC3C)cc2)CC1 (centres undefined)	0	-2.4	-13	-34	-2	-16%	0.2%
CN(CCO)C(=O)C1CCN(c2ncc(C(F)(F)F)cc2Cl)CC1	1	-2.3	6	-5	-11	10%	0.5%
Cc1c(C)n(C)c2ccc(C(=O)NCCCN3CCN(c4ccc(F)cc4)CC3)cc12	-3	-5.4	-25	-37	u	-12%	0.0%
O=C(NCc1ccccc1)c1noc2c1CCCC2	-23	-2.8	2	-6	9	11%	u
Cc1ccc(Cl)cc1NC(=S)NCCCSC1CCCCC1	-3	-2.0	-5	-12	-10	22%	u
COc1ccc(S(=O)(=O)N2CCN(CC(=O)Nc3ccc(C)c(F)c3)CC2)cc1	-17	-1.7	-3	13	8	-25%	-1.7%
O=C(COC(=O)c1ccc(S(=O)(=O)N2CCOCC2)cc1)NC1CCCCCCC1	2	12	2	1	5	21%	-0.8%
COc1ccc(N2C(=O)/C(=C/c3ccc([N+](=O)[O-])cc3)N=C2C)c(OC)c1	0	1.7	-5	-3	0	1%	2.2%
COc1ccc(Cn2cc(CN3CCc4onc(-c5ccccc5OC)c4C3=O)nn2)cc1	x	x	-6	x	1	x	0.1%
Cc1ccc(S(=O)(=O)N2CCOCC2)cc1NC(=O)COC(=O)CCOc1ccc(C(C)(C)C)cc1	13	-7.8	-8	1	0	x	0.4%
